VDR inh – inhibitors of human vitamin D receptor | VDR-SRC2-3 peptide fluorescence polarization, 2 h | P11473 | actives 0.93% (n = 400,000) | Potency, µM, without a hit: max response, negative = inhibition, usual class: inhibitors; active = well fitted inhibition curve with a large enough effect; inconclusive = small, poorly fitted or top-dose-only effect, or another doubt; inactive = no such curve, though single readings can be large or run the other way; note: series mostly up to about 120 µM
Target sequence (P11473 whole entry, looked up): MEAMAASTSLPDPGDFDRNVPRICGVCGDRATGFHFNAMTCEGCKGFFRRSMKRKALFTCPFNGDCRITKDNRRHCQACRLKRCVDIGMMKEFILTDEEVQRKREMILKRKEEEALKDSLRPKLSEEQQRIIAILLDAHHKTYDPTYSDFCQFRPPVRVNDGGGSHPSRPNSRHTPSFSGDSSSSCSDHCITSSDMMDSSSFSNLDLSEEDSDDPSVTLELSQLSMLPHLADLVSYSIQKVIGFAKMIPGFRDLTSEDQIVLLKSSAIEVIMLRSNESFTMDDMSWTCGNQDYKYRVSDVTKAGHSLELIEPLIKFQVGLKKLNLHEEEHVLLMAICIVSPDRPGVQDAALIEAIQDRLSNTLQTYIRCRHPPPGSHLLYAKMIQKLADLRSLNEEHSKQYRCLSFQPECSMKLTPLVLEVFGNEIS
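FP read-out; VDR + SRC2-3 coactivator peptide; 23 nl compound by pintool; 2 h RT incubation; reagents held at 4 deg C, protected from light.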
An asterisk follows results filed as active; ? = inconclusive. % is set by controls: 0 for no effect and ±100 for the full control effect; potency is the fitted concentration of half-maximal effect. A portion of the library. The share of hits here may be higher or lower than overall.

SMILES | VDR inh
Cc1ccc2nc(-c3cccc(NC(=O)c4cccc5c(Cl)cccc45)c3)oc2c1 | -1%
CCO[C@@H]1OC(C(=O)NCc2nc3ccccc3[nH]2)=C[C@H](c2ccc(C(F)(F)F)cc2)[C@H]1CCCO | -28%
CN(Cc1cn(-c2ccccc2)nc1-c1ccc2c(c1)OCO2)Cc1nccn1C | 6%
O=C(/C=C/c1cccs1)N1CCN(Cc2ccc3c(c2)OCO3)CC1 | 14%
Cc1ccc(OCC(=O)NNC(=O)CSc2nnc(-c3ccc(C)cc3)n2C)cc1 | -14%
COc1ccc(-c2cc(C(F)(F)F)nc(SCC(=O)N(C)Cc3ccccc3)n2)cc1 | -16%
O=C(Cn1cnc2c(cnn2-c2ccc(F)cc2)c1=O)N1CCN(c2ccccc2)CC1 | -14%
CCOc1cccc(C2c3c(oc4ccccc4c3=O)C(=O)N2c2nc(C)c(C(=O)OC)s2)c1 (configuration not stated) | -17%
CC1(C)C/C(=N\NC(=S)Nc2ccccc2F)c2cc(O)ccc2O1 | -14%
C[C@@H]1NC(=O)[C@@]2(C)[C@@H](c3ccccc3)[C@H]3COc4ccc(Cl)cc4[C@@H]3N2C1=O | 15%
C[C@H]1COc2c(C3(N)CC3)c(F)cc3c(=O)c(C(=O)O)cn1c23 | -13%
CCOC(=O)/C(N=Nc1ccc(Cl)cc1)=C(/O)c1ccc([N+](=O)[O-])cc1 | -27%
O=C(CC(=O)N/N=C/c1c(F)cccc1Cl)NCc1ccccc1 | 7%
O=C(CS(=O)(=O)c1cccc2nsnc12)N1CCN(c2cccc(C(F)(F)F)c2)CC1 | 9%
CCN(C(=O)COC(=O)c1ccc([N+](=O)[O-])o1)c1cccc2ccccc12 | 8%
Nc1cc(-c2ccc(Cl)cc2)nn1S(=O)(=O)c1cccc2nsnc12 | -3%
Cc1cc(C)cc(NC(=O)CCC(=O)Nc2cc(C)on2)c1 | 4%
CN(C)c1ccc(N2[C@@H](CC(=O)O)c3cc(C(F)(F)F)ccc3S2(=O)=O)cc1 | 16%
CCn1c(C)cc(O)c(C(=O)Nc2cccc(Cl)c2)c1=O | 9%
CCOC(=O)C(O)(CC(=O)Nc1cc(F)ccc1C)C(F)(F)F (configuration not stated) | -2%
Cc1[nH]oc(=O)c1N=Nc1ccc2[nH]c(=O)[nH]c2c1 | -4%
CCOc1ccc(/C(O)=C2\C(=O)C(=O)N(CCN(C)C)C2c2cccc(OC)c2OC)cc1Cl (configuration not stated) | -10%
O=C(Nc1ccc(Cl)cc1)c1cc2nc(C3CC3)cc(C(F)(F)F)n2n1 | 7%
COc1ccc(OC)c(NC(=O)CSc2nc(-c3ccccc3C)nc3cc(=O)[nH]n23)c1 | 7%
Cc1cccc(C)c1NC(=O)CNC(=O)c1ccc(S(=O)(=O)NCc2ccco2)cc1 | -15%

(cont.)
SMILES | VDR inh
COc1ccc(CCN2C(=O)CS/C2=N/NC(=O)c2ccccc2F)cc1OC | -17%
CCON1C(=O)C2(CCCCC2)C(=O)C12C=CCCC2 (configuration not stated) | -6%
COc1cccc(CNC(=O)CCC2CCCN(c3cc(C)nc(N(C)C)n3)C2)c1 (configuration not stated) | 11%
CCOC(=O)CSC1=C(C#N)C(c2ccc(C)o2)CC(=O)N1 (configuration not stated) | -7%
COc1cc(CNC(=O)c2cnc3c(-c4cccc(C)c4)c(C)nn3c2C)cc(OC)c1OC | -8%
CCCOc1ccccc1/C=C1\SC(N)=NC1=O | 5%
COC(=O)c1cc(OC)c(=O)c2c(OC)c(OC)ccc2c1 | -1%
COc1ccc(C(=O)OCCc2sc[n+](CC(=O)c3ccccc3)c2C)cc1 | -12%
CC(Sc1nc2cc([N+](=O)[O-])ccc2n1-c1ccc(F)cc1)C(=O)NCc1ccc2c(c1)OCO2 (configuration not stated) | -19%
CCOc1ccccc1Nc1sc(C(=O)c2ccccc2)c(N)c1C(=O)NCCc1ccccc1 | 0%
Cc1ccc(-c2onc(C)c2C)cc1S(=O)(=O)N1CCOc2ccccc21 | -10%
CCOc1ccc(NC(=O)NC(C)c2c(-n3cccc3)sc3c2CCN(CC)C3)cc1 (configuration not stated) | 14%
CSCCC(C(=O)N1CC2(C)CC1CC(C)(C)C2)N1C(=O)c2ccccc2C1=O (configuration not stated) | -12%
COc1ccc(NC(=O)COC(=O)CCc2cc(OC)c(OC)c(OC)c2)c([N+](=O)[O-])c1 | 0%
O=[N+]([O-])c1cccc(OCC(O)CN2CCN(S(=O)(=O)c3cc(Cl)ccc3Cl)CC2)c1 (configuration not stated) | -13%
CCN1CCN(c2oc(-c3ccco3)nc2C#N)CC1 | -14%
CC(C)OCCCn1c(=O)c2ccccc2n2c(-c3cc(Cl)ccc3O)nnc12 | 13%
CC(=O)Nc1c(I)cc(I)c(C(=O)O)c1I | 0%
CC(=O)c1ccc(C(=O)N2CCCC(CNC(=O)c3ccccc3Cl)C2)cc1 (configuration not stated) | -8%
Oc1c(/C=C/C=C/C=Nc2ccccc2)sc(=S)n1Cc1ccccc1 | -9%
O=C(NCC1CCCCC1)c1cccc(S(=O)(=O)NCc2cccnc2)c1 | -4%
CCn1cc(S(=O)(=O)c2ccc(C)cc2)[nH]c1=O | -2%
COc1ccc(/C(C)=N/NC(=O)c2ccncc2)cc1 | -13%
COCCCNC(=O)c1ccc2c(c1)ncn2-c1ccccc1OC | 21%
CNC(=O)CC1C(=O)N(C)C(=S)N1NC(=O)c1ccc(Cl)cc1 (configuration not stated) | -4%

(more compounds)
SMILES | VDR inh
CCOC(=O)C(=CNc1nc(-c2ccc3ccccc3c2)cs1)C(=O)OCC | 18%
Cc1ccc(CNC(=O)CN(c2cccc(C)c2C)S(=O)(=O)c2ccccc2)cc1 | -2%
O=C(NCc1ccccc1)NC1COc2ccccc2C1 (configuration not stated) | -1%
COc1ccc(-n2nnnc2/C=C\Nc2ccccc2C(=O)c2ccccc2)cc1 | 5%
Cc1ccc(C)c(OCC(=O)Nc2ccccc2N2CCCC2)c1 | -1%
Cn1c(=O)c2c(ncn2CC(=O)N2CCN(c3ccccc3)CC2)n(C)c1=O | -3%
O=C(NCCc1ccc(Cl)cc1)c1ccc(CS(=O)Cc2ccc(Cl)cc2)o1 (configuration not stated) | 1%
Cc1ccc(N/C(N)=N/c2nc(C)cc(C)n2)cc1 | 0%
Cc1ccc(-c2nnc(Nc3ccc(CC(N)=O)cc3)c3ccccc23)cc1 | -22%
CC(C)Sc1nc2c(c(=O)[nH]c(=O)n2C)n1C | -9%
COC(=O)c1ccc(COc2cccc3c2OC(C)(C)C3)cc1 | -1%
CCCCNC(=O)CCCn1c(=O)c2ccccc2n(CC(=O)NCCC2=CCCCC2)c1=O | -3%
CCOc1ccc(Br)cc1C1=CC(=O)C[C@H](c2ccc(OC)cc2)C1 | -7%
COc1ccc(CNCc2cccc(Cl)c2)cc1 | -9%
C=CCN(C(=O)CNC(=O)c1ccco1)C(C(=O)NC1CCCCC1)c1ccc(F)cc1 (configuration not stated) | 1%
CC(=O)N1CCN(c2ccc([N+](=O)[O-])cc2C#N)CC1 | 12%
CCn1ccnc1C(O)c1cccc(OC)c1OC (configuration not stated) | -16%
O=C(/C=C/c1ccc(-c2ccccc2)cc1)NCc1cccnc1 | 7%
CCOc1ccc(Cl)cc1S(=O)(=O)N1CCC(C(=O)N2CCCC2)CC1 | -12%
CCCn1c(=N)n(CC(O)c2ccco2)c2ccccc21 (configuration not stated) | 20%
CCc1nc2c(cnn2-c2ccc(Cl)cc2)c(=O)n1-c1ccc(OC)c(Cl)c1 | -12%
CC(C)(C)c1ccc(-c2nn(CCC#N)cc2/C=N/O)cc1 | 12%
Cc1ccc(C)c(NC(=O)Cn2c(=O)n(Cc3ccco3)c(=O)c3oc4ccccc4c32)c1 | -7%
CCOc1ccc(CNS(=O)(=O)c2c(C(=O)N3CCC(C)CC3)c(C)n(C)c2C)cc1OC | 3%
Cn1c(=O)n(CC(=O)Nc2ccccc2)c2ccccc21 | 18%

(cont.)
SMILES | VDR inh
CC(C)O/N=C1\C(=O)N(c2ccccc2)c2ccccc21 | 2%
CCC(=O)Nc1ccc(C)cc1-c1nc2ccccc2n(CC(=O)c2ccc(C)cc2)c1=O | 12%
CC(C)c1nn2c(=O)cc(COC(=O)c3ccc4c(c3)OCO4)nc2s1 | -8%
CCC(=O)Nc1ccc(O)cc1 | 0%
O=C(Nc1ccccc1C(F)(F)F)C1CCN(C(=O)c2cccs2)CC1 | 0%
CCc1ccc(C(=O)c2cn(Cc3ccc(F)cc3)c3cc(OC)c(OC)cc3c2=O)cc1 | -6%
CC(C)c1ccc(NC(=O)COC(=O)c2nn(C)c(=O)c3ccccc23)cc1 | -1%
CCCC12C(=O)C(C)(C(c3ccccc3)=C1c1ccccc1)C1C(=O)N(c3ccc(C)cc3)C(=O)C12 (configuration not stated) | -15%
COc1cc(/C=N/NC(=O)c2ccc(CN3C(=O)c4cccc5cccc3c45)cc2)cc(OC)c1O | -4%
Cc1ccc(Nc2nnc(SCC(=O)c3ccc(O)cc3O)s2)cc1 | 16%
Cc1ccc(S(=O)(=O)N2CCCCC2)cc1NC(=O)CSc1nncn1-c1ccccc1 | 3%
CC(C)(C)OC(=O)NCCCCCNC(=O)c1[nH]cnc1C(=O)Nc1ccon1 | 7%
Cc1ccc(NC(=O)c2ccc3c(O)c(S(=O)(=O)c4ccccc4)c(=O)[nH]c3c2)cc1Cl | 10%
Cc1cc(C(=O)CSc2nnc(N)s2)c(C)n1C1CC1 | 11%
CCOc1ccc(NC(=O)Cc2ccccc2)c([N+](=O)[O-])c1 | -13%
COc1ccc(NC(=O)C(Cc2ccccc2)NC(=O)c2ccco2)cc1OC (configuration not stated) | 0%
NC(=O)c1ccc(NCC2CCCO2)c([N+](=O)[O-])c1 (configuration not stated) | 15%
Cc1ccc(C2=NOC(=O)/C2=C\c2ccccc2)cc1 | 32µM*
Cc1onc(-c2ccccc2)c1C(=O)OCCOc1ccccc1F | ?
CCn1cc(/C=C2/SC(=S)NC2=O)c(C)n1 | 1%
CCN(CC)S(=O)(=O)c1ccc(NC2CCN(Cc3ccccc3)CC2)nc1 | -1%
CN1CCN(c2ccc(NC(=O)c3ccc4c(c3)OCCO4)cc2Cl)CC1 | 4%
CC(=O)N1CCc2cc(S(=O)(=O)NCCC(=O)NCCc3ccc(C)cc3)ccc21 | 14%
Cc1ccc(CN2C(=O)C(=O)N(CC(N)=O)C2=O)cc1 | -1%
O=C(Nc1cccc(-c2nc3ccccc3[nH]2)c1)c1c(F)cccc1F | 13%

The list goes on.
SMILES | VDR inh
Cc1ccc(NC(=O)N2C3CCCC2CC(NC(=O)C2CC2)C3)cc1 (configuration not stated) | 24%
CC(C)C(=O)Nc1cccc(C(=O)Nc2ccc(S(=O)(=O)N3CCOCC3)cc2)c1 | -9%
CN(C)CCNC(=O)CCCN1C(=O)c2cccnc2Oc2ccc(Cl)cc21 | 8%
Cc1nn(C)c(=O)n1-c1ccc(OCc2ccccc2)cc1 | -5%
COc1ccccc1CNC(=O)Cn1cc([N+](=O)[O-])ccc1=O | 17%
COc1ccc(Nc2nc(-c3cccs3)nc3ccccc23)cc1S(=O)(=O)N1CCOCC1 | 3%
CCN(c1ccccc1)S(=O)(=O)c1ccc(C(=O)NCCCn2ccnc2)cc1 | -3%
CC(C)CCn1c(SCc2c(F)cccc2Cl)nc2ccsc2c1=O | 2%
O=[N+]([O-])c1ccc(Sc2ccccc2)nc1 | -14%
CCOC(=O)c1c(NC(=O)C2c3ccccc3Oc3ccccc32)sc(C)c1CC | -11%
CC1CN(C(=O)Nc2ccc(Br)cc2Cl)CC(C)O1 (configuration not stated) | -13%
Cc1ccc(C)c(NC(=O)NCCN2CCCCC2)c1 | 10%
COc1ccc(N2CCN(C(=O)Cn3cnc4c3c(=O)n(C)c(=O)n4C)CC2)cc1 | -11%
COc1ccc(/C(C)=N/Nc2cccc(C(=O)O)c2)cc1OC | -13%
Nc1ccc(Sc2ccccc2)nc1 | -13%
Cc1onc(-c2ccccc2)c1C(=O)Nc1nnc(N2CCCCCC2)s1 | 4%
CC1C/C(=C/c2cccn2C)C(=O)/C(=C/c2cccn2C)C1 (configuration not stated) | -9%
CCOc1ccc(NC(=O)CSc2nnc(Cc3ccccc3)c(=O)n2N)cc1 | 0%
Cc1ccc(C(=O)C(c2ccccc2)N2Cc3ccccc3C2=N)cc1 (configuration not stated) | -5%
COc1ccc(N(CC(=O)Nc2ccc(C)c(C)c2)S(=O)(=O)c2ccc(C)cc2)cc1OC | -9%
COCCSc1ccccc1C(=O)N1CCOCC1 | -5%
CCO/C=C1/C(=O)N(C(C)=O)c2ccccc21 | -6%
CCOC(=O)c1sc(=S)n(-c2ccccc2)c1N | -7%

Structural class, the compounds so far containing an aryl thioether with sulfur outside any ring
SMILES | VDR inh
Cc1ccc(OCC(=O)NNC(=O)CSc2nnc(-c3ccc(C)cc3)n2C)cc1 | -14%
COc1ccc(-c2cc(C(F)(F)F)nc(SCC(=O)N(C)Cc3ccccc3)n2)cc1 | -16%
COc1ccc(OC)c(NC(=O)CSc2nc(-c3ccccc3C)nc3cc(=O)[nH]n23)c1 | 7%
CC(Sc1nc2cc([N+](=O)[O-])ccc2n1-c1ccc(F)cc1)C(=O)NCc1ccc2c(c1)OCO2 (configuration not stated) | -19%
CC(C)Sc1nc2c(c(=O)[nH]c(=O)n2C)n1C | -9%
Cc1ccc(Nc2nnc(SCC(=O)c3ccc(O)cc3O)s2)cc1 | 16%
Cc1ccc(S(=O)(=O)N2CCCCC2)cc1NC(=O)CSc1nncn1-c1ccccc1 | 3%
Cc1cc(C(=O)CSc2nnc(N)s2)c(C)n1C1CC1 | 11%
CC(C)CCn1c(SCc2c(F)cccc2Cl)nc2ccsc2c1=O | 2%
O=[N+]([O-])c1ccc(Sc2ccccc2)nc1 | -14%
Nc1ccc(Sc2ccccc2)nc1 | -13%
CCOc1ccc(NC(=O)CSc2nnc(Cc3ccccc3)c(=O)n2N)cc1 | 0%
COCCSc1ccccc1C(=O)N1CCOCC1 | -5%

2 entries from above, tab-delimited.
Structure	VDR inh
CCN(c1ccccc1)S(=O)(=O)c1ccc(C(=O)NCCCn2ccnc2)cc1	-3%
CC(C)CCn1c(SCc2c(F)cccc2Cl)nc2ccsc2c1=O	2%
